High-throughput results (PubChem)
UUG fidelity: yeast start codon fidelity modulation | S. cerevisiae UUG-firefly luciferase reporter, luminescence/redox ratio | activity score, % at 18.7 µM | 350,000 compounds, 0.13% hits | AID 602363;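 active = replicate mean at a twofold rise or more, about +100% in these data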;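 note: firefly luciferase made from a UUG start codon reports start codon fidelity; reporter light over untreated wells divided by growth signal over untreated wells; some hits fall short of that in this replicate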
Rce1 inhib: yeast Ras-converting enzyme inhibition. 290,000 compounds, 0.27% hits. yeast membranes, quenched prenylated peptide cleavage fluorescence. AID 2563. calls only;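 active = fall in fluorescence gain of 50% or more versus controls, with final raw signal at or below 3038400; inconclusive = same 50% fall but final raw signal above 3038400; inactive = fall in fluorescence gain under 50%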;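 note: plate controls were neutral control wells for no effect and wells lacking membranes for full effect; tested at 10 µM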
Target sequence (Q03530 whole entry, looked up): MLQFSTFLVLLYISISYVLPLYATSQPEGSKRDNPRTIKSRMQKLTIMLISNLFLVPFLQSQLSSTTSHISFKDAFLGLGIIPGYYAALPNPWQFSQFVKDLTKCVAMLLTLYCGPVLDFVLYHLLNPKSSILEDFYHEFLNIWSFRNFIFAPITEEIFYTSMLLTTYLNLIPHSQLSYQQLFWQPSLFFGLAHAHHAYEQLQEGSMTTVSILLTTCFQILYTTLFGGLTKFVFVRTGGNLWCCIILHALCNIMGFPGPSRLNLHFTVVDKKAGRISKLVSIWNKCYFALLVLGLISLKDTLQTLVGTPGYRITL
CSC inhib: blocks cancer stem cells; cancer stem cell-like cells viability, luminescence; inhibition, % at 7.5 µM; 300,000 compounds, 1.1% hits; AID 2717;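 active = mean at 75% or more and at least half the replicates too; inconclusive = mean and replicates disagree; tested in HMLE shEcad cells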;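 note: 0% = median of negative and 100% = median of positive control wells; the first replicate is given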
MT1-MMP act inh: MT1-MMP (human) activation inhibition; P50281; HT1080 RFP-PRO-GFP cells, GFP/RFP ratio fluorescence, overnight; percent of plate control window, DMSO zero; GFP/RFP ratio change, % at 20 µM; 360,000 compounds, 0.061% hits; AID 651647;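 active = GFP/RFP ratio change of at least 30% with cell ATP level not reduced by more than half and red fluorescence within 50% of control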; note: strong numbers were not always called active
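Test system: HT1080 RFP-PRO-GFP cells; Benchmarks: DMSO and RFP-L50D-GFP cell wells; Timing: cells overnight before dosing, compound overnight, 37 °C, 5% CO2; Compound: one 20 µM compound dose with 1% DMSO; Read-out: GFP/RFP fluorescence ratio.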
PABP polyA inh: blocks human PABP binding to poly(A) RNA | P11940 | inhibition, % at 35 µM | fluorescence polarization | AID 2014 | 290,000 compounds, 1% hits;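 active = 50% or more with normal probe brightness, or confirmed in later tests; inconclusive = above 50% with abnormal brightness, or retests that disagree; inactive = below 50% or failed in later tests; about a fifth of its hits are not listed in these tables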;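 note: calls also rest on retests at 20 µM and on dose response follow-up; controls were probe without protein and protein plus probe with vehicle; some compounds called inactive have numbers as strong as hits; many hits fall short of the cut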
eIF4H inh: inhibitors of RNA binding by human eIF4H | eIF4H fluorescence polarization binding assay | Q15056 | inhibition, % at 35 µM | 290,000 compounds, 0.94% hits;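 active = 50% or more with normal probe brightness, or confirmed in later tests; inconclusive = above 50% with abnormal brightness, or retests that disagree; inactive = below 50% or failed in later tests; about a fifth of its hits are not listed in these tables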;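 note: calls also rest on retests at 20 µM and on dose response follow-up; 0% = protein and probe with vehicle and 100% = probe without protein; strong numbers were not always called active; many hits fall short of the cut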
Env fusion inh: blocks HIV Env-driven cell-cell fusion; inhibition, % at 12.3 µM; 360,000 compounds, 1.1% hits; HeLa-JRFL Env/CEM21 cell fusion, luciferase;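 active = mean replicate inhibition score of at least 50 and every replicate individually at or above 50; inconclusive = only one of the two criteria met; inactive = mean below 50 and not all replicates reaching 50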;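 note: 0% = plate neutral controls and 100% = maraviroc near 300 nM; one replicate is shown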
eIF4H inh retest: second read-out of eIF4H inh, no call of its own (marks repeat the call); inhibition, %; compound at 20 µM; confirmation average;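 mean of two retest wells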
PABP polyA inh retest: second read-out of PABP polyA inh, no call of its own (marks repeat the call); inhibition, %; compound at 20 µM; confirmation repeats;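 mean of two retest wells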
MT1-MMP act inh RFP: second read-out of MT1-MMP act inh, no call of its own (marks repeat the call); RFP signal change, %; measured here: RFP expression control read;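 0 = vehicle wells; hits needed this value within 50% of zero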
Active calls of the source: *; i = inactive; ? = inconclusive; / = not tested or not shown.

SMILES	UUG fidelity	Rce1 inhib	CSC inhib	MT1-MMP act inh	MT1-MMP act inh RFP	PABP polyA inh	eIF4H inh	Env fusion inh	others
CCOC(=O)Cc1cc(=O)n2[nH]cc(-c3cccc(Br)c3)c2n1	-14	i	27	6	6	12	30	6
Cc1ccc(C2CC2C(=O)NNC(=S)Nc2cccc(Cl)c2)cc1 (stereo not given)	-25	i	55	6	-2	4	13	24
O=C(CN1C(=O)COc2ccccc21)N1CCOCC1	-8	i	0	4	3	/	/	-1
Cc1cc(C)n(CC(C)NCc2cn[nH]c2-c2cccc3ccccc23)n1 (stereo not given)	/	i	6	1	-2	73	?	22	PABP polyA inh retest=40
O=C(C1CCCN(S(=O)(=O)c2cccc3cccnc23)C1)N1CCc2ccccc21 (stereo not given)	-5	i	25	2	-3	2	-8	22
COc1ccccc1N1CCN(C(=O)c2ccccc2SCC(=O)NCc2ccco2)CC1	-18	/	/	2	2	/	/	5
Cc1ccc2c(n1)sc1c(N)ncnc12	-6	/	1	-1	1	0	-7	/
CCc1ccc(OCC(=O)NC(C)C)cc1	-2	i	1	3	-3	-7	14	15
Cc1ccc(NC(=O)CSc2nnc(CN3CCOCC3)n2-c2ccccc2)cc1	-18	i	2	3	-1	0	-11	25
CC(O)(CS(=O)(=O)Cc1ccccc1Cl)C(=O)Nc1cccc(C(F)(F)F)c1 (stereo not given)	16	i	/	1	3	-5	2	20
CCCCCCCCCOC(=O)C(CC(=O)O)N1CCOCC1 (stereo not given)	4	i	-11	7	-2	2	-11	/
CC(=O)c1c(C)[nH]c(C(=O)OCC(=O)Nc2ccc([N+](=O)[O-])cc2Cl)c1C	/	i	-13	3	3	62*	-1	14	eIF4H inh retest=40;PABP polyA inh retest=95*
CCOC(=O)c1sc(C)c2c1NC(C)(c1ccccc1)NC2=O (stereo not given)	-13	i	-14	2	-5	-1	9	/
Cc1cc(=O)n2[nH]c(-c3sccc3-n3c(C)ccc3C)cc2n1	/	/	-6	/	/	31*	94*	-7	eIF4H inh retest=98*;PABP polyA inh retest=94*
CCc1noc(C)c1C(=O)NNC(=O)c1ccccc1F	-25	/	0	-1	0	/	/	-13
O=c1cnc2ccccc2n1CC1CCCCC1	/	i	/	-10	-8	-5	-2	/
CCOc1ccc(NC(=O)c2cc([N+](=O)[O-])ccc2N2CCOCC2)cc1	-3	i	14	-3	-7	/	/	-15
Cc1ccc(C(C(=O)NC2CCCC2)N(Cc2ccco2)C(=O)CCC(=O)Nc2cc(C)on2)cc1 (stereo not given)	-14	i	-15	-5	0	-12	0	/
COc1ccc(C2CC(c3ccc(Cl)cc3Cl)Nc3nc(N)nn32)cc1OC (stereo not given)	-7	i	7	1	-1	-19	-7	-11
CC1(C(=O)NS(=O)(=O)c2cccc(Cl)c2)CCN1C(=O)C1(c2ccccc2)CC1 (stereo not given)	-10	/	/	0	4	/	/	-10
CCOC(=O)C1C(=O)C=C(c2ccc(C)cc2)CC1c1ccco1 (stereo not given)	-18	i	15	0	-2	-7	-8	-25
COc1ccc(C(CNC(=O)c2ccc(OC)c(S(=O)(=O)N3CCCC3)c2)N2CCCC2)cc1 (stereo not given)	1	/	/	-2	2	/	/	1
COc1ccc(NC(=O)c2ccccc2SC)c(OC)c1	/	i	16	5	3	2	5	-26
NC(=O)c1ccc(NC(=O)COC(=O)c2ccc(Br)c(S(=O)(=O)N3CCOCC3)c2)cc1	-8	/	/	-1	0	/	/	-11

Fetched one by one from the entries so far (4):
SMILES	UUG fidelity	Rce1 inhib	CSC inhib	MT1-MMP act inh	MT1-MMP act inh RFP	PABP polyA inh	eIF4H inh	Env fusion inh	others
Cc1ccc(C2CC2C(=O)NNC(=S)Nc2cccc(Cl)c2)cc1 (stereo not given)	-25	i	55	6	-2	4	13	24
CCOC(=O)c1sc(C)c2c1NC(C)(c1ccccc1)NC2=O (stereo not given)	-13	i	-14	2	-5	-1	9	/
Cc1ccc2c(n1)sc1c(N)ncnc12	-6	/	1	-1	1	0	-7	/
COc1ccccc1N1CCN(C(=O)c2ccccc2SCC(=O)NCc2ccco2)CC1	-18	/	/	2	2	/	/	5

Further compounds:
SMILES	UUG fidelity	Rce1 inhib	CSC inhib	MT1-MMP act inh	MT1-MMP act inh RFP	PABP polyA inh	eIF4H inh	Env fusion inh	others
Cc1ccc(C2CC(c3cccs3)=NN2C(=O)c2ccc(Br)o2)cc1 (stereo not given)	-9	i	19	-19	-19	8	6	/
C=CCn1c(CSCc2ccc(C)cc2)nnc1SCC(=O)NCc1ccccc1	-6	i	0	5	4	-16	-10	/
CCOc1c(Cl)cc(C2NC(=O)NC(C)=C2C(=O)NCc2ccccc2)cc1OC (stereo not given)	-11	i	-13	0	2	-2	-5	-14
O=C(COC(=O)C1CCN(S(=O)(=O)c2ccccc2)CC1)NC(=O)c1ccc(OC(F)F)cc1	/	i	-8	1	3	6	-5	-4
Cc1[nH]c2ccccc2c1C(=O)NS(=O)(=O)Nc1ccccc1	/	i	-6	-1	1	-11	-5	-1
CCN(c1ccccc1)S(=O)(=O)c1ccc(Oc2ccc(C(C)=O)cc2OC)nc1	-3	/	/	3	-13	/	/	11
Clc1ccc(OCCSc2ncccn2)c2ccccc12	-21	i	46	6	1	0	-7	-5
CC(NC(=O)CNC(=O)Cc1cccc2ccccc12)c1ccc(S(N)(=O)=O)cc1 (stereo not given)	-5	i	/	-4	0	8	68	18	eIF4H inh retest=-5;PABP polyA inh retest=19
CN(CC(=O)NCc1ccccc1Cl)CC(=O)Nc1cccc(F)c1	13	i	-4	0	1	-2	-13	18
N=C1C(c2nc(-c3ccc(Cl)cc3)cs2)=C(O)CN1CCCN1CCOCC1	4	i	-1	-3	-5	8	-3	/
CCN(CC)CCOC(=O)C12CC3CC(CC(C3)C1)C2	-4	i	3	5	6	-6	-14	/
CN(C)/C=C/C(=O)c1ccc(Oc2ncccn2)cc1	/	i	-7	2	2	-13	7	-13
Cc1nc(SC(C)C(=O)NCC2CCCO2)c2cc(-c3ccccc3)sc2n1 (stereo not given)	-13	i	48	2	1	/	/	-16
O=C(O)c1cccc(S(=O)(=O)NCCC(c2ccccc2)c2ccccc2)c1	/	i	-15	-6	-7	9	-6	35
Cc1ccsc1C(=CCCN1CCC[C@@H](C(=O)O)C1)c1sccc1C	-10	i	1	-2	3	/	/	13
CCN(C(=O)CN1CCOCC1)C1(C)C(=O)c2ccccc2C1=O	/	i	-2	5	10	-5	9	-6
CCc1nnc(NC(=O)CSc2ccc(-c3nc4ccc(C)cc4[nH]3)cn2)s1	-2	i	/	8	1	18	3	-250
COc1ccc(C(C)=O)cc1CN1C(=O)NC2(CCCCCCC2)C1=O	-8	i	11	0	2	-13	-2	9
CCOP(=O)(OCC)c1nc(-c2ccccc2Cl)oc1N1CCOCC1	-8	i	-7	-1	1	-9	-2	18
Cn1nc2c3ccccc3n(Cc3ccc(F)cc3)c2nc1=S	/	i	-4	3	-4	-2	-13	4
O=C(c1cc(COc2ccc3ncccc3c2)on1)N1CCC(O)CC1	-15	i	-7	5	-16	-9	3	16
COC(=O)CC1=NN(c2nc3ccccc3s2)C(=O)/C1=C/N(C)C	/	i	-3	-1	3	-8	8	-12
Cc1ccc(C2OCC3(CO)COC(c4ccc(C)cc4)N23)cc1 (stereo not given)	-8	i	-14	10	2	-8	-1	-4
O=C(CCCc1c[nH]c2ccccc12)N1CCOCC1	-18	i	-9	0	4	9	6	/
CSc1c(SCc2ccccc2)cnn(-c2ccccc2)c1=O	/	i	79*	5	-4	1	5	5
COc1ccc(Nc2cc(=O)n(C3CCCCC3)c(=O)[nH]2)c(OC)c1	-47	i	-8	-1	5	5	-5	/
COC(CNC(=O)c1ccc(CS(=O)(=O)c2ccc(C)cc2)o1)OC	2	i	-18	0	2	7	-5	5
Cc1ccc(S(=O)(=O)N2C(=O)CCC2C(=O)NCc2ccco2)cc1 (stereo not given)	-19	i	-8	1	3	4	0	11
CC(C)c1nnc(NC(=O)c2nc(S(=O)(=O)Cc3ccc(F)cc3)ncc2Cl)s1	-11	i	106*	1	5	/	/	19
COc1ccc2[nH]c(=O)c(-c3noc(-c4ccc(F)cc4)n3)cc2c1	-6	i	-4	-2	-1	1	4	-132
Cc1ccc(NC(=O)[C@@H](NC(=O)c2cccc(S(=O)(=O)N3CCOCC3)c2)C(C)C)cc1C	/	i	13	-11	-15	6	-10	/
NC(=O)COc1ccc(-c2noc(COc3ccccc3[N+](=O)[O-])n2)cc1	/	i	-3	0	5	-5	-1	6
COc1ccc(C(=O)C2CCCN(C(=O)c3csc(SC)n3)C2)cc1F (stereo not given)	-26	/	/	4	-1	/	/	-1
Cc1ccc(NC(=O)NC(=O)CSc2nnc(-c3ccc(OC(F)F)cc3)n2N)c(C)c1	-15	i	-2	-5	-4	2	-5	-69
O=C(C/C=N\O)Nc1ccc(Oc2ccccc2)cc1	/	i	-4	6	1	-2	-12	0
COc1ccc(-c2nnc(SCc3ccc(C(=O)O)cc3)n2C)cc1OC	1	i	-27	-4	-2	2	-15	3
CC(C)C[C@@H](CNCC(=O)[C@H](C)NC(=O)c1[nH]cnc1C(=O)N[C@@H](C)CN)NC(=O)c1nc[nH]c1C(=O)N[C@@H](CO)C(=O)O	-7	/	/	3	5	/	/	-23
CCn1c(SCC(=O)NCc2ccco2)nnc1-c1cccs1	/	/	2	-4	1	8	-2	/
COc1ccc(O)c(-c2cc(-c3ccccc3[N+](=O)[O-])[nH]n2)c1	/	i	9	10	9	-10	-11	-2
Cn1c(=O)c2c(SCC(=O)N3CCCC3)nc(-c3ccccc3)nc2n(C)c1=O	-4	i	-8	-1	-1	10	-6	/
Oc1ccccc1C=NNC(=S)NC1CC2C=CC1C2 (stereo not given)	-31	/	/	4	-10	/	/	-105
Cn1c(=O)c2c(SCC(=O)NCc3ccco3)nc(-c3ccccc3Cl)nc2n(C)c1=O	6	i	-3	-7	-1	13	47	14
O=C(c1c[nH]c2ccccc12)C(Cl)c1ccccc1 (stereo not given)	10	i	83*	-7	-8	7	-4	-154
COc1ccc(-c2nn(-c3ccccc3)cc2C(=O)N2c3ccc(C)cc3C3CN(C)CCC32)cc1 (stereo not given)	/	i	/	-12	-4	-8	-7	3
O=C(O)c1cccc(NC(=S)NC(=O)C(c2ccccc2)c2ccccc2)c1	-27	i	-4	-4	-1	9	-6	/
O=C(O)Cc1ccc(-n2cccc2)cc1	-23	i	14	2	1	-8	95	-1	eIF4H inh retest=-4;PABP polyA inh retest=1
COc1ccc(OC)c2c(C)cc(N3CCN(C(=O)c4ccc(C)cc4)CC3)nc12	/	/	-2	-4	-2	4	0	15
C=CCN1C(=O)/C(=C2/Sc3ccc(OC)cc3N2C)SC1=Nc1ccc(OC)cc1	/	i	12	/	/	6	3	11
O=C(O)COc1ccc(/C=C2/SC(=S)N(Cc3ccccc3)C2=O)cc1	-18	i	3	-14	0	-5	-4	1
Cc1ncsc1C(=O)Nc1cccc(C(F)(F)F)c1	/	i	-10	3	3	-3	-5	1
C=CCN1C(=O)[C@H]2CCC=C[C@H]2[C@@H]1c1cccc(C)c1	2	/	/	0	3	/	/	0
CC1=N/C(=C/c2ccco2)C(=O)O1	/	i	/	-4	3	4	91	4	eIF4H inh retest=-6;PABP polyA inh retest=-1
CN1C(=O)S/C(=C\c2ccc(-n3cncn3)cc2)C1=O	-13	i	-2	-2	-4	-4	5	-16
